# Source: PubChem (Southern Research Institute)
# Mtb H37Rv – Mycobacterium tuberculosis H37Rv growth inhibition, cell based, confirmatory dose response (AID 1949). hit rate 1.6% among 100,000. most inactive calls were filed without a number and no value below 0 was filed. inhibition, % at 10 µg/mL, or IC50 in µg/mL where a hit was titrated. M. tuberculosis H37Rv growth inhibition;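 active = confirmed in a dose series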;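 also: bacteria grown 7 days with compound before Alamar blue readout; 0% = untreated bacteria and 100% = reference antibiotic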
# An asterisk follows results filed as active; i = inactive. Not all compounds are listed; rates above refer to the full screens.
structure | Mtb H37Rv
CC1CCc2cc(C(=O)NNC(=S)NCc3ccc(Cl)cc3)sc2C1 (stereo not given) | i
COc1ccc(S(=O)(=O)N(CC(=O)Nc2ccccc2C(N)=O)c2ccc(Cl)cc2)cc1 | i
COC(=O)CSc1ncnc2scc(-c3ccc(Cl)cc3)c12 | i
O=C(NC(=S)Nc1ccc(I)cn1)c1ccc(F)cc1Cl | i
CS(=O)(=O)N(CC(=O)Nc1ccc(F)cc1F)c1cc(Cl)cc(Cl)c1 | i
CCc1nnc(NC(=O)Cc2ccc(Br)cc2)s1 | i
CCCCNC(=O)c1ccccc1NC(=O)c1ccc(F)cc1 | 4%
Cc1ccc(-c2nc(N)n(C(=O)c3ccccc3)n2)cc1 | i
COc1ccc(-c2csc(NC(=S)NC(=O)c3c(OC)cccc3OC)n2)cc1 | i
COC(=O)c1ccc(N2C(=O)CC(NCc3ccc(OC(F)(F)F)cc3)C2=O)cc1 (stereo not given) | i
COc1ccccc1NC(=O)Nc1ccc2c(c1)nc(C)n2C | i
COc1ccc(-c2cc(C(=O)Nc3ccccc3F)c3ccccc3n2)cc1 | 2%
CSc1nc2ccccc2n1C(=O)c1ccc(S(=O)(=O)N2CCCCCC2)cc1 | 3%
N/C(=N\OCC(=O)Nc1ccc(-n2cnnn2)cc1)c1nonc1N | i
CC(C)NC(=O)CCCc1ccccc1 | i

structure | Mtb H37Rv
Cc1cccc(CN(C)C)c1OC(=O)N(C)C | i
O=[N+]([O-])c1ccccc1OCCCN1CCc2ccccc2C1 | i
CS(=O)(=O)N(CC(=O)Nc1cc(Cl)ccc1Oc1ccccc1)c1cc(Cl)ccc1Cl | 7%
COc1ccc(OC)c(NC(=O)c2ccc(N3CCCC3)c([N+](=O)[O-])c2)c1 | 1%
Cc1ccc(CN2C3=NCCN3c3ccccc32)cc1 | i
CC(C)(C)c1ccc(/C=N/NC(=O)C2COc3ccccc3O2)cc1 (stereo not given) | i
Cc1ccc(C2CC(c3ccc(C)cc3)n3nnnc3N2)cc1 (stereo not given) | 0%
CC(=O)N1CCN(c2ccc(Oc3ccc(C(F)(F)F)cn3)cc2)CC1 | i
CN(Cc1ccccc1)C1CCN(C(=O)c2ccco2)CC1 | 3%
CCc1ccccc1NC(=O)c1ccc(CN(c2ccccc2)S(C)(=O)=O)cc1 | 4%
COc1ccc(-c2cc(C(=O)N/N=C/c3ccncc3)[nH]n2)cc1 | i
COc1cccc(CNC(=S)Nc2cc(C)ccc2C)c1 | 6%
CC(C)n1c(NCc2ccccc2)nc2ccccc21 | 1%
N#CCCn1cc(C(=O)NCc2ccccc2)c(-c2ccc3c(c2)OCCO3)n1 | i
COc1cc(NC(=O)CS(=O)(=O)Cc2ccccc2)c(OC)cc1Cl | i

structure | Mtb H37Rv
O=C(C1CCCO1)N1CCN(C(=S)Nc2ccc(Nc3ccccc3)cc2)CC1 (stereo not given) | i
COc1ccc(OC)c(NC(=O)Nc2ccc(OC)c(OC)c2)c1 | 0%
Cc1ccc(-c2nc3ncccc3o2)cc1NC(=S)NC(=O)c1ccco1 | i
Cc1ccc(N(CC(=O)NC2CC2)S(C)(=O)=O)c(C)c1 | 0%
O=C(CN1C(=O)c2ccccc2S1(=O)=O)Nc1ccc2c3c(cccc13)CC2 | i
Cc1cc(=O)[nH]c(Sc2c(C)c3cc4c(cc3[nH]c2=O)OCO4)n1 | i
COc1ccc(NC(=O)C2CCN(C(=O)c3ccccc3C)CC2)cc1OC | i
CCOC(=O)c1c(CN2CCCC2)n(-c2ccccc2)c2cc(Br)c(O)c(CN(C)C)c12 | i
CCOC(=O)c1ccc(NC(=O)C2(c3ccc(OC)c(OC)c3)CCOCC2)cc1 | i
COc1cccc(C(=O)N2CCn3c2nc2ccccc23)c1 | i
c1ccc2[nH]c(CCSc3nc4ccccc4[nH]3)nc2c1 | i
CCc1cccc2c1NC(=O)C2(O)CC(=O)c1ccc(Br)cc1 (stereo not given) | i
c1cncc(CN2CCN(C3CCCC3)CC2)c1 | i
O=C(NC(=S)Nc1ccc(Cc2ccncc2)cc1)c1ccccc1 | i
CC(C)C(=O)Nc1ccc(C(=O)Nc2ccc(C#N)cc2)cc1 | i

structure | Mtb H37Rv
O=C(c1sc2ccccc2c1Cl)N1CCN(c2ccc(F)cc2)CC1 | i
O=C(COc1ccc(F)cc1)Oc1ccc(Cl)cc1 | i
CCCSc1nc(-c2ccccc2)cc(C(F)(F)F)c1C#N | 4%
Cc1ccc(C(=O)O)cc1NC(=O)COc1ccc(C(C)(C)C)cc1 | 1%
CCOC(=O)c1ccc(NC(=O)CSc2nnc(-c3ccccc3OC)n2C)cc1 | 3%
CCNC(=S)/N=C(/Nc1ccccc1)Nc1nc(C)cc(C)n1 | i
COc1ccccc1N1CCN(C(=S)Nc2ccc(C(C)=O)cc2)CC1 | i
COc1cccc(NC(=O)C2CC(=O)OC23CCCCC3)c1 (stereo not given) | 1%
CCOC(=O)c1c(NC(=O)CN2C(=O)COc3ccc(Cl)cc32)sc2c1CCCC2 | i
COc1cc(OC)c(C(=O)Nc2ncn[nH]2)cc1OC | i
CCN1CCN(CCOCCOc2ccccc2Cc2ccccc2)CC1 | i
Cc1ccc(SCCNC(=O)c2ccc(CN(c3ccccc3)S(C)(=O)=O)cc2)cc1 | i
COC(=O)c1ccccc1NC(=O)c1ccc(-c2cccc([N+](=O)[O-])c2)o1 | i
O=C(c1ccncc1)N1CCN(S(=O)(=O)c2cc(Cl)ccc2Cl)CC1 | i
COc1ccccc1C(NC(=O)C1CCCCC1)c1cc([N+](=O)[O-])c2cccnc2c1O (stereo not given) | i

structure | Mtb H37Rv
O=C(NC(=S)NCC1(c2ccccc2)CCOCC1)c1ccccc1 | i
CCOC(=O)c1cc(Cc2ccccc2)sc1NC(=S)Nc1cccc(S(=O)(=O)N2CCOCC2)c1 | 26%
CN(c1cccc(NC(=O)CN(c2cccc(Cl)c2)S(=O)(=O)c2ccccc2)c1)S(C)(=O)=O | i
Cc1ccc2c(Cl)c(C(=O)Nc3ccc([N+](=O)[O-])cc3)sc2c1 | 6%
O=c1oc2ccccc2cc1-c1csc(Nc2ccccc2C(F)(F)F)n1 | i
COCCNCCCCOc1ccc(C(C)C)c(C)c1 | i
COc1nc(SC)nc2sc3c(c12)CCC3 | 1.5µg/mL*
Cc1ccc(OCC(=O)Nc2ccc(S(=O)(=O)NC3CCCCC3)cc2)c(C)c1 | i
Cc1c(C(=O)N2CCN(C)CC2)oc2c1C(=O)CC(C)(C)C2 | i
Cc1ccc(C2CC(=O)C3=C(C2)NC(=O)CC3c2cc3c(cc2Br)OCO3)cc1 (stereo not given) | i
CC12CN3CCN(C1)CC(C)(C3)C2NC(=S)Nc1ccccc1 (stereo not given) | i
O=C(c1ccc(NC(=S)NCC2CCCO2)cc1)N1CCCCC1 (stereo not given) | 2%
CCCc1cc(=O)[nH]c(SCC(=O)Nc2ccc(C(=O)OC)cc2)n1 | i
O=C(C1CC(=O)N(c2ccccc2)C1)N1CCN(C2=NS(=O)(=O)c3ccccc32)CC1 (stereo not given) | i
O=C(COc1ccccc1Br)N1CCCCCC1 | i

canonical_smiles	Mtb H37Rv
CSc1nc(-c2ccccc2)nc(N2CCCC2)c1C(C)=O	20%
COc1ccc(Cc2nnc(NC(=O)c3ccc(OC)c(OC)c3)s2)cc1	0%
CCCc1c(C)c2cc3c(C)coc3cc2oc1=O	10%
CN1CCN(C(=S)NC(=O)c2ccccc2Br)CC1	i
O=C(N/N=C/c1ccccc1O)c1cc(=O)[nH]c2ccccc12	i
CCn1c(SCC(=O)Nc2cc(Cl)c(Cl)cc2Cl)nnc1-c1cccc(C)c1	5%
CN1CCC2(CC1)C(C#N)=C(N)Oc1c2oc(CO)cc1=O	i
Cc1cccc(C(=O)Nc2ccc(NC(=O)c3cccnc3)cc2)c1	i
O=C(Nc1ccccc1C(F)(F)F)Nn1cnnc1	i
CCCCNC(=O)CC1NCCNC1=O (stereo not given)	2%
COC(=O)c1ccc(Cl)c(NC(=O)c2ccccc2OC)c1	i
COc1ccc(C2(C(=O)Nc3ccc(OC)cc3OC)CCCC2)cc1	14%
CCOC(=O)c1sc(NC(=O)CSc2nc3sc(C)c(C)c3c(=O)n2C)nc1C	i
COc1cccc(CO)c1OCc1ccccc1F	i
Fc1ccc(CNc2ccc(N3CCCC3)cc2)cc1	6%
Cc1ccc(S(=O)(=O)N(C)CC(=O)Nc2cccnc2)cc1	i
N/C(Cc1cccc2ccccc12)=N\OC(=O)COc1ccccc1Cl	7%
COC(=O)c1ccccc1NC(=S)NC(=O)c1cc(Cl)c(OC)c(Cl)c1	i
COc1ccccc1-c1c(C)oc2cc(OC(=O)c3ccco3)ccc2c1=O	i
COC(=O)c1ccccc1NC(=O)CSc1nnnn1-c1ccc(C)cc1C	i

canonical_smiles	Mtb H37Rv
S=c1[nH]nc(-c2ccncc2)n1-c1ccc(Cl)cc1	i
CC(Cc1ccccc1)NC(=O)CSc1nc(N)c2c3c(sc2n1)COC(C)(C)C3 (stereo not given)	4%
COc1ccc2oc(=O)c(-c3nc4ccccc4c(=O)[nH]3)cc2c1	i
COc1ccc(NC(=S)NC(C)c2ccc(C)c(C)c2)cc1OC (stereo not given)	1%
COc1ccc(C(C)NC(=O)C(N)=O)cc1 (stereo not given)	i
COc1cc(C)ccc1OCCOc1c(C)cc(C)cc1Br	50%
COC(=O)c1ccccc1NC(=O)N1CCCC1	i
Cc1ccc2nc(NC(=O)c3c(-c4ccccc4Cl)noc3C)sc2c1	i
COC(=O)c1ccc(NC(=O)c2cccs2)cc1	17%
Cn1cc(/C=C(\C#N)C(N)=S)c2ccccc21	3%
CCSc1nc2ccccc2n1C(=O)/C=C/c1ccc(F)cc1	i
COC(=O)c1ccc(OCCOCCOc2cccc3ccc(C)nc23)cc1	i
O=C(Nc1ccccc1-c1nc2ccccc2s1)c1ccc(-c2ccccc2)cc1	i
CCOC(=O)c1sc2nc3c(cc2c1N)COC(C)(C)C3	i
O=C(O)CC12CC3CC(CC(O)(C3)C1)C2	i
Cc1nc2ccc(NC(=O)c3ccc([N+](=O)[O-])cc3)cc2[nH]1	i
COC(=O)c1c(NC(=O)C2C3C=CC(C3)C2C(=O)O)sc2c1CCCCCC2 (stereo not given)	i
O=C(COc1ccc2ccccc2c1)Oc1ccc(-c2ccccc2)cc1	21%
CCOc1ccc(NS(=O)(=O)c2ccc(NC(=O)C(F)(F)F)cc2)cc1	i
Cc1ccc(N(CC(=O)N2CCOCC2)S(C)(=O)=O)cc1C	i

# An excerpt of these results, with each value named.
> COc1cc(C)ccc1OCCOc1c(C)cc(C)cc1Br
- Mtb H37Rv: 50%

> COC(=O)c1ccccc1NC(=O)N1CCCC1
- Mtb H37Rv: i

> Cc1ccc2nc(NC(=O)c3c(-c4ccccc4Cl)noc3C)sc2c1
- Mtb H37Rv: i

> COC(=O)c1ccc(NC(=O)c2cccs2)cc1
- Mtb H37Rv: 17%

# Other compounds:
canonical_smiles	Mtb H37Rv
O=C(c1cccs1)N(c1ccc(Cl)cc1)C1C=CS(=O)(=O)C1 (stereo not given)	i
COc1cccc(C(=O)Nc2cccc(-c3nc4cc(Cl)ccc4o3)c2C)c1	i
CCCCOc1cccc(C(=O)NC(=S)Nc2ccc(NC(=O)c3ccco3)c(Cl)c2)c1	i
COc1ccc2[nH]c(=O)c(CN(C(=O)c3cncc(Br)c3)c3cccc(C)c3)cc2c1	i
CCOc1ccc(CCNC(=S)NNC(=O)c2ccncc2)cc1OCC	i
CCOC(=O)c1oc2c(CN3CCCCC3C)c(O)ccc2c(=O)c1-c1ccc(OC)c(OC)c1 (stereo not given)	i
Nc1nc(SCC(=O)c2ccccc2)nc2sc3c(c12)CCC3	i
O=C(Nc1ccc([N+](=O)[O-])cc1)c1ccccc1Cl	i
O=S(=O)(NC(=NC1CCCCC1)c1ccccc1)c1ccccc1	i
COC(=O)c1sc(S(=O)(=O)Nc2ccc(C)c(C)c2)c(C(=O)OC)c1C	i
O=C(c1cn(Cc2ccc(F)cc2)c2ccccc12)C1CC1	i
NC(=O)CN(CCc1ccccc1)S(=O)(=O)c1cc(Cl)ccc1Cl	i
CCOC(=O)c1sc(-c2ccccc2F)nc1C	2%
COc1ccc(N2CCN(S(=O)(=O)c3cccc(C(F)(F)F)c3)CC2)cc1	i
N#C/C(=C/c1ccc([N+](=O)[O-])o1)c1ccc(C#N)cc1	3µg/mL*
COc1ccc(N(Cc2cc3ccccc3[nH]c2=O)C(=O)c2cccc(OC)c2)cc1	i
CCN(CC)S(=O)(=O)c1ccc(OC)c(Br)c1	i
COc1ccc(OC)c(NC(=O)COc2cc(C)c(Br)cc2C)c1	4%
Cc1ccc(C(=O)Oc2ccc(C(=O)Cn3cnc4ccccc4c3=O)cc2)cc1	i
O=C(Nc1ccc(S(=O)(=O)NCCc2ccccc2)cc1)c1ccc2c(c1)OCO2	0%
COC(=O)C1=C(C)N(CCC2=CCCCC2)C(=O)C1	i
c1ccc(CC(CCNCc2ccco2)c2ccco2)cc1 (stereo not given)	i
Cc1oc(C(C)(C)C)cc1C(=O)NCCO	i

# Six entries drawn at random from those above:
canonical_smiles	Mtb H37Rv
O=C(Nc1ccc([N+](=O)[O-])cc1)c1ccccc1Cl	i
O=C(c1cccs1)N(c1ccc(Cl)cc1)C1C=CS(=O)(=O)C1 (stereo not given)	i
O=C(Nc1ccc(S(=O)(=O)NCCc2ccccc2)cc1)c1ccc2c(c1)OCO2	0%
COc1ccc(N2CCN(S(=O)(=O)c3cccc(C(F)(F)F)c3)CC2)cc1	i
NC(=O)CN(CCc1ccccc1)S(=O)(=O)c1cc(Cl)ccc1Cl	i
COC(=O)C1=C(C)N(CCC2=CCCCC2)C(=O)C1	i
